Screening results deposited in PubChem BioAssay by several laboratories.
Rce1 inh: yeast Rce1p protease inhibitors, primary screen, biochemical, fluorescence, cell-free homogeneous; CAAX prenyl protease 2 (Saccharomyces cerevisiae (strain ATCC 204508 / S288c)), Q03530; 0.27% of 290,000 active; yeast membranes, quenched prenylated peptide cleavage fluorescence; calls only;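 active = fall in fluorescence gain of 50% or more versus controls, with final raw signal at or below 3038400; inconclusive = same 50% fall but final raw signal above 3038400; inactive = fall in fluorescence gain under 50%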;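 note: plate controls were neutral control wells for no effect and wells lacking membranes for full effect; tested at 10 µM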
Env fusion inh: inhibitors of HIV-1 Env-driven cell-cell fusion, primary screen, HeLa-JRFL effector, CEM21 target cells, luciferase; inhibition, % at 12.3 µM; 1.1% of 360,000 active;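 active = mean replicate inhibition score of at least 50 and every replicate individually at or above 50; inconclusive = only one of the two criteria met; inactive = mean below 50 and not all replicates reaching 50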;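 note: 0% = plate neutral controls and 100% = maraviroc near 300 nM; one replicate is shown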
CSC inhib: cancer stem cell viability inhibitors, primary screen, luminescence. cancer stem cell-like cells viability. 1.1% of 300,000 active. AID 2717, 2010. inhibition, % at 7.5 µM;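 active = mean at 75% or more and at least half the replicates too; inconclusive = mean and replicates disagree; tested in HMLE shEcad cells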;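 note: 0% = median of negative and 100% = median of positive control wells; the first replicate is given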
UUG fidelity: modulators of yeast start codon fidelity, primary screen, whole organism, S. cerevisiae, single point, plate reader; S. cerevisiae UUG-firefly luciferase reporter, luminescence/redox ratio; activity score, % at 18.7 µM; 0.13% of 350,000 active;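 active = replicate mean at a twofold rise or more, about +100% in these data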;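 note: firefly luciferase made from a UUG start codon reports start codon fidelity; reporter light over untreated wells divided by growth signal over untreated wells; some hits fall short of that in this replicate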
eIF4H inh: human eIF4H binding inhibitors, primary screen, translation initiation inhibitor project, biochemical, uHTS, fluorescence polarization; 0.94% of 290,000 active; inhibition, % at 35 µM; Eukaryotic translation initiation factor 4H (Homo sapiens), Q15056; eIF4H fluorescence polarization binding assay;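 active = 50% or more with normal probe brightness, or confirmed in later tests; inconclusive = above 50% with abnormal brightness, or retests that disagree; inactive = below 50% or failed in later tests; about a fifth of its hits are not listed in these tables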;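 note: calls also rest on retests at 20 µM and on dose response follow-up; 0% = protein and probe with vehicle and 100% = probe without protein; strong numbers were not always called active; many hits fall short of the cut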
MT1-MMP act inh: blockers of MT1-MMP proenzyme processing, primary screen, HT1080 RFP-PRO-GFP cells, GFP/RFP fluorescence. Matrix metalloproteinase-14 (Homo sapiens), P50281. 0.061% of 360,000 active. GFP/RFP ratio fluorescence, overnight; percent of plate control window, DMSO zero. AID 651647, 2012. GFP/RFP ratio change, % at 20 µM;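 active = GFP/RFP ratio change of at least 30% with cell ATP level not reduced by more than half and red fluorescence within 50% of control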; note: strong numbers were not always called active
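Assay system: HT1080 RFP-PRO-GFP cells. Benchmarks: DMSO vehicle wells and RFP-L50D-GFP reporter cell wells. Times: overnight cell settling, then overnight compound exposure, 37 °C, 5% CO2. Compound: 20 µM single dose, 1% DMSO. Read-out basis: GFP/RFP fluorescence ratio.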
PABP polyA inh: PABP poly(A) RNA binding inhibitors, primary screen, biochemical, fluorescence polarization, uHTS; Polyadenylate-binding protein 1 (Homo sapiens), P11940; inhibition, % at 35 µM; 1% of 290,000 active; AID 2014, 2009;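 active = 50% or more with normal probe brightness, or confirmed in later tests; inconclusive = above 50% with abnormal brightness, or retests that disagree; inactive = below 50% or failed in later tests; about a fifth of its hits are not listed in these tables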;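 note: calls also rest on retests at 20 µM and on dose response follow-up; controls were probe without protein and protein plus probe with vehicle; some compounds called inactive have numbers as strong as hits; many hits fall short of the cut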
Target sequence (P11940 whole entry, looked up): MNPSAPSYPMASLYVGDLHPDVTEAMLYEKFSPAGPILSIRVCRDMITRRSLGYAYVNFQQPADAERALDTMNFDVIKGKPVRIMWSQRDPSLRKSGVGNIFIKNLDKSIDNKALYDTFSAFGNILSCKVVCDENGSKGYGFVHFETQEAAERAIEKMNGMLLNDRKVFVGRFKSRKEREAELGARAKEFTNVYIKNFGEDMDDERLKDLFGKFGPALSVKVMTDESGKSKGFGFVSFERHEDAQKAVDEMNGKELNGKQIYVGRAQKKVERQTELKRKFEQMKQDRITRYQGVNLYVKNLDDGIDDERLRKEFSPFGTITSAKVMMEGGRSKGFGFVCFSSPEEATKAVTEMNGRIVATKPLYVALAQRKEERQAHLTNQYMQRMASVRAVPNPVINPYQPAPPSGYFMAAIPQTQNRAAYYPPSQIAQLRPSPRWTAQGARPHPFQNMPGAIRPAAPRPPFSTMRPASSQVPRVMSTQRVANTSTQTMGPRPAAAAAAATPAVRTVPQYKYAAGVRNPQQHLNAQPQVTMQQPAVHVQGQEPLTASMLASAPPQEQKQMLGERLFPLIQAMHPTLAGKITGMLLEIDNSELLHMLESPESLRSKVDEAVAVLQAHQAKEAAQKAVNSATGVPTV
MT1-MMP act inh RFP: recorded beside MT1-MMP act inh, whose call it bears; RFP signal change, %; measured here: RFP expression control read;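 0 = vehicle wells; hits needed this value within 50% of zero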
The depositor's hits bear a star; i = inactive; ? = inconclusive; . = not tested or not shown. Not a hit list, and some 3% of all compounds hit somewhere here.

SMILES	Rce1 inh	Env fusion inh	CSC inhib	UUG fidelity	eIF4H inh	MT1-MMP act inh	MT1-MMP act inh RFP	PABP polyA inh
C=CCN(Cc1ccc(OC)c(OC)c1)C(=O)N1CCOCC1	i	-3	-7	-16	-5	0	2	8
O=C(Cn1cnc2c(oc3nc4c(cc32)CCCC4)c1=O)Nc1cccc(Cl)c1	i	-21	-1	-20	10	1	6	-6
O=C(O)/C=C/C(=O)Nc1cccc(C(F)(F)F)c1	i	-9	-10	.	0	-5	-10	-1
CCCC[n+]1ccn(C2=C([O-])c3ccccc3C(=O)/C2=N\S(=O)(=O)c2ccc(Cl)cc2)c1	i	1	27	.	-4	3	-1	-3
Cc1nn(-c2ccccc2)c(C)c1NC(=O)COc1ccc(F)cc1Cl	i	13	-4	.	-15	1	-9	-7
Cc1ccccc1N(C)S(=O)(=O)c1nnc(NC(=O)c2ccco2)s1	i	-12	0	3	.	-2	3	.
COCCNC(=O)CCCn1c(=O)c2cc(OC)c(OC)cc2n(CC(=O)c2ccccc2)c1=O	i	3	-18	-11	-13	2	1	14
CN1/C(=C/C2CC(=O)N(c3ccc([N+](=O)[O-])cc3)C2=O)C(C)(C)c2ccccc21 (configuration not stated)	i	.	16	-5	-4	-9	0	13
CCOc1ncccc1C(=O)OCC(=O)Nc1ccc(S(=O)(=O)N2CCOCC2)cc1	i	-5	-4	-10	-10	-1	3	5
O=C(COC(=O)c1cccs1)Nc1ccc(S(=O)(=O)N2CCOCC2)cc1	i	.	4	.	-1	2	4	0
C/C(=N\OC(=O)Nc1ccc(Cl)cc1)c1ncc(C(F)(F)F)cc1N1CCOCC1	i	-52	23	-11	-3	3	-3	-12
Cc1nn(CC(=O)NCc2ccccc2)c(=O)c2ccccc12	i	-45	.	-3	0	4	8	42
Cc1cc(C)cc(OCC(=O)O/N=C(\N)Cc2ccc([N+](=O)[O-])cc2)c1	i	3	-2	-1	-5	2	-3	3
CCOc1ccc(NC(=O)CSc2nnc(C)n2CC2CCCO2)cc1 (configuration not stated)	i	9	17	-9	-4	2	2	5
O=C(CCc1ccccc1)NNC(=O)COc1ccccc1Cl	i	3	-1	1	-2	0	3	4
CC(=O)Nc1ccc(-n2c(=O)c3ccccc3c3ccccc3c2=O)cc1	i	-19	-7	.	0	2	-4	7
CC1CCN(c2c(NCC3CCC(C(=O)NCCCc4ccccc4)CC3)c(=O)c2=O)CC1 (configuration not stated)	i	.	4	.	-5	.	.	-8
O=C(CN1CCS(=O)(=O)CC1)N/N=C/c1cccc(C(F)(F)F)c1	i	-6	-10	-15	-9	-1	2	-4
O=[N+]([O-])c1ccccc1S(=O)(=O)Nc1ccc(S(=O)(=O)N2CCOCC2)cc1	i	2	-6	9	-3	4	3	-2
CCCn1c(N)c(C(=O)CSc2nc(C)nc3sc(C)c(C)c23)c(=O)[nH]c1=O	i	14	6	-16	.	2	3	.
CN(C)c1ccc(/C=C2\SC(=O)N(CC(O)Cn3c4ccccc4c4ccccc43)C2=O)cc1 (configuration not stated)	i	-7	32	-10	?	-25	-9	10
Cc1ccc(OCCn2cc(C(=O)O)c3ccccc32)cc1	i	-8	-5	-16	4	3	3	4
O=C(Cn1c(CCCO)nc2ccccc21)Nc1ccccc1-c1ccccc1	.	-1	-19	-25	2	-1	0	0
CCN(CC)Cc1cc(C(=O)O)c(C)o1	i	-1	-4	.	-1	3	5	11
Cc1ccccc1OCC(=O)Nc1cccc(Cl)c1C	i	-17	2	-20	-5	-2	-4	1

Entries of single compounds, looked up by structure.
CC(=O)Nc1ccc(-n2c(=O)c3ccccc3c3ccccc3c2=O)cc1 is listed as Rce1 inh: i; Env fusion inh: -19; CSC inhib: -7; UUG fidelity: .; eIF4H inh: 0; MT1-MMP act inh: 2; MT1-MMP act inh RFP: -4; PABP polyA inh: 7
Cc1cc(C)cc(OCC(=O)O/N=C(\N)Cc2ccc([N+](=O)[O-])cc2)c1 is listed as Rce1 inh: i; Env fusion inh: 3; CSC inhib: -2; UUG fidelity: -1; eIF4H inh: -5; MT1-MMP act inh: 2; MT1-MMP act inh RFP: -3; PABP polyA inh: 3
CCOc1ncccc1C(=O)OCC(=O)Nc1ccc(S(=O)(=O)N2CCOCC2)cc1 is listed as Rce1 inh: i; Env fusion inh: -5; CSC inhib: -4; UUG fidelity: -10; eIF4H inh: -10; MT1-MMP act inh: -1; MT1-MMP act inh RFP: 3; PABP polyA inh: 5

The listing picks up, repeating the 2 entries before the break.
SMILES	Rce1 inh	Env fusion inh	CSC inhib	UUG fidelity	eIF4H inh	MT1-MMP act inh	MT1-MMP act inh RFP	PABP polyA inh
CCN(CC)Cc1cc(C(=O)O)c(C)o1	i	-1	-4	.	-1	3	5	11
Cc1ccccc1OCC(=O)Nc1cccc(Cl)c1C	i	-17	2	-20	-5	-2	-4	1
CC(C)Cn1nc(NC(=O)c2cccs2)c2cc3ccccc3nc21	i	-4	13	-8	5	0	-1	-6
CC(OCC(O)CN1CCN(S(=O)(=O)c2ccc(Cl)cc2)CC1)c1ccc(Cl)cc1 (configuration not stated)	.	30	.	-13	.	-5	-21	.
O=C(CSc1ccc(-c2cccnc2)nn1)Nc1ccc(Br)cc1	i	19	-8	-12	2	0	-24	8
CC1=C(C(=O)OC2CCCCCCC2)C(c2ccc(O)cc2)NC(=O)N1 (configuration not stated)	i	.	-12	16	-15	3	-3	3
O=C(CN(Cc1ccco1)C(=O)CNS(=O)(=O)c1ccc(Cl)cc1)NC1CCCCC1	i	.	-6	-17	-3	-5	-2	29
COc1cc(/C=C(\C#N)C(=O)Nc2cc(C(F)(F)F)ccc2Cl)ccc1OCC(=O)Nc1cccc(C(F)(F)F)c1	i	10	-3	-21	7	-2	2	-3
COc1ccc(C2C(C(N)=O)=C(C)Nc3ncnn32)cc1 (configuration not stated)	i	-20	-5	-14	-6	4	7	-2
O=C(Nc1nccs1)c1cc(Cl)nc2ccccc12	.	4	-5	.	-7	-2	-9	4

Six entries already listed, arranged by the number in MT1-MMP act inh RFP, high to low.
| SMILES | Rce1 inh | Env fusion inh | UUG fidelity | MT1-MMP act inh | MT1-MMP act inh RFP |
| --- | --- | --- | --- | --- | --- |
| CCN(CC)Cc1cc(C(=O)O)c(C)o1 | i | -1 | . | 3 | 5 |
| O=C(Cn1c(CCCO)nc2ccccc21)Nc1ccccc1-c1ccccc1 | . | -1 | -25 | -1 | 0 |
| CCCC[n+]1ccn(C2=C([O-])c3ccccc3C(=O)/C2=N\S(=O)(=O)c2ccc(Cl)cc2)c1 | i | 1 | . | 3 | -1 |
| O=C(CN(Cc1ccco1)C(=O)CNS(=O)(=O)c1ccc(Cl)cc1)NC1CCCCC1 | i | . | -17 | -5 | -2 |
| C/C(=N\OC(=O)Nc1ccc(Cl)cc1)c1ncc(C(F)(F)F)cc1N1CCOCC1 | i | -52 | -11 | 3 | -3 |
| CC(=O)Nc1ccc(-n2c(=O)c3ccccc3c3ccccc3c2=O)cc1 | i | -19 | . | 2 | -4 |
